WNV protease inh – inhibitors of WNV NS2B-NS3 protease, primary screen, biochemical, fluorogenic substrate; Genome polyprotein (West Nile virus), P06935; fluorogenic substrate Ex360/Em465; hits give low values; z-score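 (tested at a level between 10 and 100 µM)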; hit rate 0.18% among 65,000; AID 577, 2007;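 active = z-score at -3 or under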;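 also: score is relative to mean and spread of the compound wells of a plate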
Target sequence (P06935 1371-1501 limits assumed): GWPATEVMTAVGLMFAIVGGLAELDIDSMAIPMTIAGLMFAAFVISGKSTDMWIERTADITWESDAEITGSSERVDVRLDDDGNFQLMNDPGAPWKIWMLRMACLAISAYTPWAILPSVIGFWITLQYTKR
Target sequence (P06935 1502-1679 limits assumed): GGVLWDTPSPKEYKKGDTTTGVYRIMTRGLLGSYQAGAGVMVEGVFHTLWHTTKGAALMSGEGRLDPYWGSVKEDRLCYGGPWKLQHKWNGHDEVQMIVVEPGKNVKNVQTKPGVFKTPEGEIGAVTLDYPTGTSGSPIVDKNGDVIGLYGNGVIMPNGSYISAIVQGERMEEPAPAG
Hsc70 – Hsc70 inhibitors, probe displacement, primary screen, biochemical, fluorescence polarization (AID 568). Heat shock cognate 71 kDa protein (Homo sapiens). Hsc70 fluorescence polarization, probe displacement; higher % means a stronger effect; strong numbers were not always called active. one-dose displacement, % at 20 µM; IC50 in µM for titrated hits. 83,000 tested, under 10 active;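 active = displacement above 50% without optical interference and an IC50 on retest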;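 also: ATPase domain with a fluorescein-tagged ATP probe; 0% = vehicle and 100% = excess ADP; read after one hour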
MT1-MMP promoter – inhibitors of MT1-MMP promoter transcription, cell-based, luciferase reporter, luminescence (AID 618). MT1-MMP promoter luciferase reporter cells, luminescence. calls from a first round at 10 µM; hits with a dose series show EC50 in µM. hit rate 0.62% among 87,000;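 active = over half of the reporter light lost at 10 µM or EC50 under 50 µM; inactive = the rest and hits that failed the dose series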;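 also: actives suppress MT1-MMP promoter-driven transcription so potencies describe inhibitors; HT1080 fibrosarcoma cells; overnight exposure; toxic or luciferase-blocking compounds were not removed from the actives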
Starred values were filed as active, the others as inactive; i = inactive; · = no result given.

Values run as follows: WNV protease inh	Hsc70	MT1-MMP promoter
> O=S(=O)(c1ccc2c(c1)OCCCO2)N1CCNCC1
→ 0.68	-2.4%	i
> COC(=O)Cc1c(C)c2c(OCc3nn[nH]n3)cc(C)cc2oc1=O
→ -0.36	3.3%	i
> CCOc1ccc(C2c3c(oc4ccccc4c3=O)C(=O)N2c2ccccn2)cc1OC (stereo unspecified)
→ -0.54	1.0%	i
> Cc1ccc(NC(=O)CSc2nnc(-c3ccccc3C)o2)cc1C
→ 0.19	1.9%	i
> CCOc1ccccc1C1C(C(N)=O)=C(C)Nc2nc(-c3cccc(C)c3)nn21 (stereo unspecified)
→ 0.15	-6.0%	i
> CCCn1c(SCC(=O)N2CCCc3ccccc32)nnc1-c1ccccn1
→ 1.6	-2.6%	i
> Cc1ccc(Nc2nc3nonc3[nH]c2=O)cc1
→ -1.4	8.9%	i
> CC(NS(C)(=O)=O)C(c1cccs1)N1CCN(c2ccccc2)CC1 (stereo unspecified)
→ -0.18	-7.9%	i
> Cc1ccc2nc(/C(C#N)=C/c3cn[nH]c3-c3ccc(F)cc3)[nH]c2c1
→ ·	2.7%	i
> CC1CCCCC1NC(=O)c1ccc2c(c1)[nH]c(=O)n2C1CCCC1 (stereo unspecified)
→ 0.37	2.9%	i
> CCOC(=O)c1cc(-c2ccc(N)cc2)sc1N
→ 0.05	0.2%	i
> O=C(CSc1nnc(CNc2ccccc2)o1)c1ccc2c(c1)OCCO2
→ 0.83	-0.8%	i
> CCC(=O)Nc1nc2c(OC)ccc(OC)c2s1
→ -1.4	-0.5%	i
> CC1=NCCN1S(=O)(=O)c1ccc(Br)c(C)c1
→ 0.73	-5.0%	i
> Cc1c(NC(=O)CSc2nc3ccccc3s2)c(=O)n(-c2ccccc2)n1C
→ ·	2.0%	i

The final three compounds of the part above open the next one.
Values run as follows: WNV protease inh	Hsc70	MT1-MMP promoter
> CCC(=O)Nc1nc2c(OC)ccc(OC)c2s1
→ -1.4	-0.5%	i
> CC1=NCCN1S(=O)(=O)c1ccc(Br)c(C)c1
→ 0.73	-5.0%	i
> Cc1c(NC(=O)CSc2nc3ccccc3s2)c(=O)n(-c2ccccc2)n1C
→ ·	2.0%	i
> CCN1CCN(c2nc3c(c(=O)n(C)c(=O)n3C)n2CCSc2nccc(C)n2)CC1
→ -0.57	3.6%	i
> O=C(O)CCn1[nH]c(=O)ccc1=O
→ 1.3	0.6%	i
> Nc1nc(SCc2ccc3c(c2)OCO3)n[nH]1
→ -0.38	-1.1%	i
> COc1ccc(-n2c(SCC(=O)Nc3ccc4c(c3)OCO4)nnc2C(C)N2CCCCC2)cc1 (stereo unspecified)
→ -0.67	5.0%	i
> O=C(CN(Cc1cccs1)C(=O)CN1C(=O)COc2ccccc21)NCc1ccco1
→ -0.25	-3.6%	i
> CSc1oc(-c2ccc(F)cc2)nc1S(=O)(=O)c1ccc(F)cc1
→ -0.47	3.8%	i
> COC(=O)c1ccc(CN2C(=O)NC3(CCCCC3C)C2=O)o1 (stereo unspecified)
→ -0.6	-3.0%	i
> CNC(=O)c1cc2ccccc2o1
→ -0.31	-0.4%	i
> Cc1cc(C)n(-c2nc(Nc3ccccc3)nc(-n3nc(C)cc3C)n2)n1
→ -1.5	2.5%	i
> CCOc1ccc(C(C)(N)C(=O)O)cc1 (stereo unspecified)
→ -0.53	5.9%	i
> CCC(=O)N(Cc1cccs1)C1CCOC(C)(C)C1 (stereo unspecified)
→ -0.24	5.1%	i
> O=C1C2ON(c3ccccc3)C(c3ccccn3)C2C(=O)N1c1ccc(Br)cc1 (stereo unspecified)
→ -0.12	-7.6%	i
> Cc1cc(C)c(NC(=O)CSc2nnc(Cc3cccn3C)n2-c2ccc(F)cc2)c(C)c1
→ 1	4.7%	i
> Cn1c(SCC(=O)c2ccccc2)nc2cccnc21
→ -0.53	-2.7%	i
> Cc1ccc2c(c1)N(CC(=O)NCc1cccnc1)C(=O)CO2
→ ·	-2.3%	i
> COc1ccc(C(O)c2nccn2Cc2ccccc2)cc1OC (stereo unspecified)
→ ·	9.0%	i
> CCCCNC(=O)Cn1c(-c2ccc(OC)cc2)noc1=O
→ 1.3	8.2%	i
> O=C(NCCC1=CCCCC1)c1cc2c(s1)CS(=O)(=O)C2
→ -0.43	4.2%	i
> O=C(Nc1cc(C(F)(F)F)ccc1N1CCOCC1)c1n[nH]c(=O)c2ccccc12
→ 0.4	2.7%	i
> c1ccc(OCc2nn3c(-c4ccco4)nnc3s2)cc1
→ -0.42	4.4%	i
> CCCCn1c(SCC(=O)c2ccc3c(c2)OCCO3)nnc1-c1ccoc1C
→ -0.39	4.5%	i
> Cc1ccc(-n2c(SCC(=O)N3CCOCC3)nnc2-c2cccnc2)cc1C
→ 1.1	-5.8%	i
> Cn1c(=O)c2[nH]c(-c3ccccc3)nc2n(C)c1=O
→ ·	2.0%	i
> CCCOc1ccc(N2CC(C(=O)Nc3ccccn3)CC2=O)cc1 (stereo unspecified)
→ -0.92	-1.8%	i
> CCOC(=O)C1CN(S(=O)(=O)c2ccc(C)cc2)CCN1S(=O)(=O)c1ccc(C)cc1 (stereo unspecified)
→ -0.94	4.1%	i
> CCN(CC(=O)NCc1cccs1)C(=O)c1cc(S(=O)(=O)N2CCOCC2)ccc1C
→ -0.08	0.7%	i
> O=C1COc2ccccc2N1Cc1ccccc1Cl
→ 1.7	-1.7%	i
> CCOC(=O)C1CCCc2c1[nH]c1c(C(=O)O)cccc21 (stereo unspecified)
→ -0.22	2.2%	i
> Cn1nnnc1SCCNCc1cccc2ccccc12
→ 1.2	-0.7%	i
> O=CN1CCN(C(=O)c2ccccc2Cl)CC1
→ ·	-0.4%	i
> COC(=O)COc1ccc(=O)n(-c2ccccc2)n1
→ ·	-2.8%	i
> Oc1ccc(Cl)cc1CNCC1CCCO1 (stereo unspecified)
→ -1.1	-0.2%	i
> Cc1ccc(-n2c(CNc3ccc(F)cc3)nnc2SCC(=O)N2CCCC2)cc1
→ -0.28	-4.7%	i
> c1ccc(-c2nnc(CN3CCCc4ccccc43)o2)cc1
→ 0.84	-5.2%	i
> O=C(N=c1nc2ccccn2s1)c1ccccc1
→ -0.54	-2.6%	i
> CCOC(=O)C1=C(C)N(c2nonc2NC(C)=O)C(N)=C(C#N)C1c1ccccc1F (stereo unspecified)
→ -1	5.9%	i
> CCOC(=O)c1ccc(N2C(=O)CC(Sc3nc(O)c(CC)c(=O)[nH]3)C2=O)cc1 (stereo unspecified)
→ -1.1	2.8%	i
> CN(C)c1ccc(C(=O)Nc2ccc(S(=O)(=O)NC3=NCCCCC3)cc2)cc1
→ -0.45	-0.4%	i
> CC(=O)NCCSCCNC(C)=O
→ 0.53	0.1%	i
> NC(=O)C1CC=CCC1C(=O)OCC(Cl)=C(Cl)Cl (stereo unspecified)
→ 0.01	6.7%	i
> Cc1cnc(NC(=O)CSc2nnc(-c3ccc(Cl)cc3Cl)n2N)s1
→ -0.32	-12%	i
> NC(=O)c1cnn(Cc2ccc(Cl)cc2)c1N
→ 0.98	-7.8%	i
> Cc1ccc(-c2nn(-c3ccccc3)cc2C2SCC(=O)N2Cc2ccccc2)o1 (stereo unspecified)
→ -0.76	1.5%	i
> Clc1ccc(-c2nnc(SCc3nc(-c4ccccc4)no3)o2)cc1
→ 0.04	0.4%	i
> CCn1cc(C(=O)NCc2ccccc2)c(=O)c2cc(F)c(N3CCN(C(=O)c4ccco4)CC3)cc21
→ ·	-3.1%	i
> N#Cc1cc2c(nc1SCc1cccnc1)CCC2
→ -0.03	3.1%	i
> CCSc1nnc(NC(=O)c2nn(C(C)C)c(=O)c3ccccc23)s1
→ 0.16	5.1%	i
> CC1(C)CC(=O)C2=C(C1)N(c1ccc(F)cc1)C(N)=C(C#N)C2c1cccs1 (stereo unspecified)
→ ·	-1.1%	i
> CC(C)CC(NC(=O)c1ccc(Cl)cc1Cl)C(=O)O (stereo unspecified)
→ ·	-2.3%	i
> Cc1ccc(NS(=O)(=O)c2cccc(C(=O)OCC(=O)NCc3ccco3)c2)cc1
→ 0.4	-7.1%	i
> CCOC(=O)C1CCCN(C(=O)c2cn(CC)c3ccc(S(=O)(=O)N(C)C)cc3c2=O)C1 (stereo unspecified)
→ -0.86	-4.8%	i
> CCOC(=O)C1=C(C)N=C(SC)N(C)C1c1ccccc1 (stereo unspecified)
→ ·	0.7%	i
> COc1cccc(C2CC(c3ccc(C(C)C)cc3)n3nc(N)nc3N2)c1 (stereo unspecified)
→ -1.7	-2.7%	i
> Cc1occc1-c1nnc(SCC(=O)N2CCOCC2)o1
→ -0.25	1.5%	i
> c1ccc2c(c1)[nH]c1c(N3CCN(C4CCCCC4)CC3)ncnc12
→ -2.5	2.0%	i
> Cc1cc(C(F)F)n2ncc(C(=O)NC3CCCCCC3)c2n1
→ 0.64	4.1%	i
> CCN(CC)CC(=O)Nc1ccc2c(c1)N(C(=O)CN(CC)CC)c1ccccc1CC2
→ ·	6.1%	i
> Cc1cc(NC(=O)CSc2cn(CCNC(=O)c3ccc(Cl)cc3)c3ccccc23)no1
→ -0.7	-2.4%	i
> Cc1cc(SCC(=O)NC(=O)NCc2ccco2)nc2ccccc12
→ 0.44	0.4%	i
> Oc1c(CN2CCCCC2)cc(Br)c2cccnc12
→ 4.6	7.3%	i

(list continues)
Values run as follows: WNV protease inh	Hsc70	MT1-MMP promoter
> CC(O)CN=c1cc(-c2ccccc2)oc2ccc(Cl)cc12 (stereo unspecified)
→ ·	-1.6%	i
> C#CC1CN(Cc2ccccc2)CC(C#C)N1C (stereo unspecified)
→ -1	0.5%	i
> CCCCNC(=O)c1nn(-c2ccccc2OC)c(=O)c2ccccc12
→ 0.5	-7.0%	i
> Cc1ccc(-c2nnc(SCC(=O)N3c4ccccc4NC(=O)C3(C)C)n2N)cc1
→ 0.07	-9.4%	i
> CC(C)C1C(C#N)=C(N)SC(N)=C1C#N
→ -0.58	-4.3%	i
> O=C(Oc1ccc(N2C(=O)CCC2=O)cc1)c1ccco1
→ -0.31	9.9%	i
> CCN(c1ccc(NC(=O)COC(=O)c2ccc3ccccc3n2)cc1)C(C)C
→ ·	2.5%	i
> Nc1ccc(-n2nncc2-c2ccccc2)cc1
→ ·	4.2%	i
> NC(=O)c1oc2ccccc2c1NC(=O)CCc1ccccc1
→ 1.6	2.1%	i
> COc1ccc(Br)cc1CNCCSc1nnnn1C
→ 1.7	-10%	i
> CCN(CC)CCCNC(=O)CC1Sc2ccccc2NC1=O (stereo unspecified)
→ 0.69	6.8%	i
> Cc1ccc(SCCC(=O)N2CCC(C)CC2)cc1
→ ·	3.3%	i
> CC(=O)NCCc1ccc(S(=O)(=O)NCc2ccc3c(c2)OCO3)cc1
→ -0.64	-4.7%	i
> CCOC(=O)c1c(CN(C)C)oc2cc(CN(C)C)c(O)c(CSc3ccccc3)c12
→ -1.5	-2.8%	i
> C#CCN1C(=O)C(O)(CC(=O)c2cc(OC)ccc2OC)c2ccccc21 (stereo unspecified)
→ -0.45	6.1%	i
> Cc1cc(NC(=O)CS(=O)(=O)c2cn(Cc3ccccc3Cl)c3ccccc23)no1
→ -1.1	-1.2%	i
> N=c1c2c(n(Cc3ccccc3)c3c1CCC3)CCC2
→ -0.06	1.5%	i
> CCC1Oc2ccccc2N(CC(=O)Nc2ccccc2OC)C1=O (stereo unspecified)
→ -0.86	2.3%	i
> Cc1cc(NC(=O)C2CCN(S(=O)(=O)c3cccs3)CC2)no1
→ ·	1.5%	i
> COc1ccc(F)cc1S(=O)(=O)NC1CC(C)(C)NC(C)(C)C1
→ 0.17	5.6%	i
> CC(C)(C)OC(=O)N1CCC(C(=O)N[C@@H](Cc2ccccc2)C(=O)O)CC1
→ ·	-1.2%	i
> CCOC(=O)c1cnn(-c2cc(C(C)(C)C)nc3c(-c4ccccc4)c(C)nn23)c1N
→ ·	-1.7%	i
> O=C1CCCN1c1ccc(S(=O)(=O)Nc2ccc3c(c2)OCCO3)cc1
→ -1.6	2.6%	i
> O=C(NCC1(c2ccccc2)CCOCC1)c1ccc(Br)o1
→ -0.23	-7.1%	i
> CCCn1c(=O)c(C(=O)Nc2nnc(C)s2)c(O)c2ccccc21
→ -0.87	3.4%	i
> CCC(C)N=Cc1c(NCc2ccco2)nc2c(C)cccn2c1=O (stereo unspecified)
→ ·	-0.5%	i
> O=C(COC(=O)c1ccco1)NCc1ccco1
→ 1.6	-3.1%	i
> Cc1c2c(nc3nc4ccccc4n13)CC(C)(C)CC2=O
→ -0.13	0.9%	i
> CCCN(Cc1cc2ccc(C)cc2[nH]c1=O)S(=O)(=O)c1ccccc1
→ ·	5.5%	i
> Cc1c(C(=O)Nc2ccncc2)sc2nc(-c3ccc(F)cc3)cn12
→ -0.51	1.4%	i
> COC(=O)C(C(=O)NCC1CCCO1)C1CCCC1 (stereo unspecified)
→ ·	2.6%	i
> COCCNC(=O)CCc1nc(-c2ccccc2)no1
→ 0.14	2.2%	i
> COc1ccc(NC(=O)Cn2nnc(C(=O)NCc3cccc(OC)c3)c2N)cc1
→ 1.3	-8.3%	i
> CCOc1ccc(NS(=O)(=O)N(C)C)cc1
→ -1.7	4.8%	i
> Cc1cc(C(=O)CN2C(=O)C3CC=CCC3C2=O)c(C)n1-c1ccccc1 (stereo unspecified)
→ 0.59	-5.8%	i
> CC(Sc1nnc(COc2ccc3ccccc3c2)n1C)C(=O)O (stereo unspecified)
→ -0.01	1.2%	i
> COC(=O)CNc1c(-c2ccccn2)nc2ccc(Br)cn12
→ 0.95	37%	i
> O=C(Nc1ccncc1)C1c2ccccc2Oc2ccccc21
→ 0.09	8.7%	i

Source: PubChem BioAssay

These rows are one share of the data (hit frequency here may not be typical).
